MT1-MMP promoter – inhibitors of MT1-MMP promoter transcription, cell-based, luciferase reporter, luminescence (AID 618). hit rate 0.62% among 87,000. MT1-MMP promoter luciferase reporter cells, luminescence. calls from a first round at 10 µM; hits with a dose series show EC50 in µM;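 active = over half of the reporter light lost at 10 µM or EC50 under 50 µM; inactive = the rest and hits that failed the dose series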;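 also: actives suppress MT1-MMP promoter-driven transcription so potencies describe inhibitors; HT1080 fibrosarcoma cells; overnight exposure; toxic or luciferase-blocking compounds were not removed from the actives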
Hsc70 ATP site – Hsc70 inhibitors, probe displacement, primary screen, biochemical, fluorescence polarization (AID 568) | Hsc70 fluorescence polarization, probe displacement; higher % means a stronger effect; strong numbers were not always called active | displacement, % at 20 µM; hits with a dose series show IC50 in µM | 83,000 tested, under 10 active;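 active = displacement above 50% without optical interference and an IC50 on retest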;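 also: ATPase domain with a fluorescein-tagged ATP probe; 0% = vehicle and 100% = excess ADP; read after one hour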
WNV NS2B-NS3 inh – WNV NS2B-NS3 proteinase inhibition. P06935. WNV NS2B-NS3 protease, fluorogenic substrate Ex360/Em465; active compounds read low. z-score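 (tested at a level between 10 and 100 µM)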. hit rate 0.18% among 65,000;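 active = z-score at -3 or under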;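 also: score is relative to mean and spread of the compound wells of a plate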
Target sequence (P06935 1371-1501 limits assumed): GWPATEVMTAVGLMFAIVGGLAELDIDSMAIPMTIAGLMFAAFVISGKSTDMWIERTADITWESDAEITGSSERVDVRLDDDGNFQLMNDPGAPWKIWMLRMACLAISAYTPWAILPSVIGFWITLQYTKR
Target sequence (P06935 1502-1679 limits assumed): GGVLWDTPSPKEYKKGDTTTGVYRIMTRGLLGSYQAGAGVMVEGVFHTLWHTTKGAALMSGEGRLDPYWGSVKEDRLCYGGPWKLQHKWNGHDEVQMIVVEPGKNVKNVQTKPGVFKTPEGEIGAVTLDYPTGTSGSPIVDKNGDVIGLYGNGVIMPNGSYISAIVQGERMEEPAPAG
Starred values were filed as active, the others as inactive; i = inactive; x = no result given. Some of the compounds tested (hit frequency here may not be typical).

compound,WNV NS2B-NS3 inh,MT1-MMP promoter,Hsc70 ATP site
CCOc1ccc(NC(=O)CCC(=O)OC)cc1,1.9,i,-1.6%
CC1=C(C(=O)OC2CCCCCCC2)C(c2cccc(O)c2)NC(=O)N1 (stereo unspecified),2.2,i,2.8%
O=C(Cn1[nH]c(=O)c2ccccc2c1=O)NCc1cccnc1,-0.3,i,-0.9%
COCCNc1c2c(nc3c(-c4ccccc4)c(C)nn13)CCCC2,x,i,2.5%
CCc1nc(NCCN2CCOCC2)c(C#N)c2c1CCCC2,-0.05,i,-6.9%
N#Cc1c(NC(=O)c2ccccc2)sc2c1CCCCC2,x,i,0.3%
CCOc1ccc(NC(=O)CSc2nc3cccnc3n2CC)cc1,0.59,i,3.1%
CC/C(C)=N\N=C\c1c(O)n(CC)c2cc(C3=NNC(=O)CC3)ccc12,x,i,-12%
COC(=O)[C@H](CCSC)NC(=O)N1CCC(C)CC1,x,i,-5.2%
CCCC(O)(c1ccc(OC)cc1)C(CN(C)C)c1ccccc1 (stereo unspecified),x,i,0.2%
COc1ccc(Cl)cc1-n1c(C)cc(C=O)c1C,x,i,-5.2%
Cn1nnnc1SCC(=O)NCC(=O)c1ccccc1,-0.32,i,2.4%
C=CCOc1cccc(C2c3c(oc4ccccc4c3=O)C(=O)N2c2ccccn2)c1 (stereo unspecified),1.8,i,-4.8%
O=C(COc1ccccc1)N1CCN(S(=O)(=O)c2ccc(Cl)cc2)CC1,x,i,3.2%
COc1ccc2[nH]c(=O)c(CN(CCO)S(=O)(=O)c3c(C)ccc4nsnc34)cc2c1,x,i,-3.9%
N#Cc1nc(COc2ccccc2F)oc1NCc1ccc(F)cc1,0.27,i,2.8%
COc1ccc(N2CCN(C(=O)c3ccc4c(=O)n(CC5CCCO5)c(=O)[nH]c4c3)CC2)cc1 (stereo unspecified),-0.97,i,-1.5%
COC(=O)c1cc2nc(-c3ccc(OC)c(OC)c3)cc(C(F)(F)F)n2n1,-0.52,i,0.2%
O=C(CCNS(=O)(=O)c1cccc2nonc12)NCc1cccs1,-0.76,i,-5.9%
Cc1cccc(Cc2c(C)nc3c(C(=O)NCc4ccco4)cnn3c2C)c1,0.26,i,5.6%
CCOC(=O)NC(NCCc1ccccc1)(C(F)(F)F)C(F)(F)F,x,i,-6.9%
Fc1ccc(-c2nnc(-c3ccc(Cl)cc3)o2)cc1,1.1,i,-0.5%
CCn1c(SCC(=O)NCC2CCCO2)nc2cc(S(=O)(=O)N3CCCCC3)ccc21 (stereo unspecified),0.27,i,1.2%
Cc1cc(C)n(-c2ccc3cccc(NS(C)(=O)=O)c3n2)n1,1.7,i,-1.9%
N#Cc1nc(N2CCCC2)nc(N2CCCC2)n1,0.37,i,2.9%
C=CCn1c(Br)nc2c1c(=O)[nH]c(=O)n2C,-0.25,i,4.7%
Cc1nn(Cc2ccccc2)c(Cl)c1C(=O)OC1CCOC1=O (stereo unspecified),0.09,i,-0.3%
CC(=O)c1sc(N2C(=O)c3oc4ccccc4c(=O)c3C2c2ccc(C)o2)nc1C (stereo unspecified),-1.1,i,3.9%
COCCn1nnnc1C(c1ccc2ncccc2c1)N1CCc2ccccc21 (stereo unspecified),0.61,i,-4.0%
COCCn1c(=O)[nH]c2cc(C(=O)NCCN3CCN(c4ccc(OC)cc4)CC3)ccc2c1=O,x,i,-1.6%
CCCNS(=O)(=O)c1ccc(CCC(=O)N2CCCCC2)cc1,1,i,7.9%
O=S(=O)(CCn1cccc1)CCn1cccc1,0.29,i,-0.3%
Cn1c(CN2CCN(CC#N)CC2)c(C#N)c2ccccc21,x,i,-0.3%
CCCC(=O)Nc1ccccc1NC(=O)C1CCCCC1,0.06,i,7.4%
CCOC(=O)CCc1c(C)c(C#N)c2nc3ccccc3n2c1-n1ccnc1,0.78,i,-6.1%
O=c1cc(CN2CCc3ccccc32)nc2sccn12,-1.1,i,10%
O=C1N2CN(C(c3ccccc3)c3ccccc3)CN=C2SC1(CO)CO,-1.3,i,4.9%
COc1ccc(CCN(Cc2cccs2)S(=O)(=O)c2ccc(-n3cnnn3)cc2)cc1OC,0.67,i,-6.2%
N#CCSc1nnc(CNc2cccc(Cl)c2)o1,1.4,i,-3.3%
O=C(O)CCS(=O)(=O)c1nc(-c2cccs2)cc(C(F)(F)F)n1,x,i,4.2%
CCN1C(=O)CS/C1=N\c1nccs1,0.37,i,-0.7%
COc1ccc(-c2nsc3c(N4CCN(C(=O)c5ccco5)CC4)ncnc23)cc1,-0.44,i,-1.6%
O=S1(=O)NC(=NCc2ccco2)c2ccccc21,-0.52,i,-1.3%
CCN(CC)C(=O)CSc1nnc(CNc2ccc(F)cc2)o1,x,i,3.1%
COc1ccc(S(=O)(=O)Cc2ccc(C(=O)N3CCN(c4ccccc4F)CC3)o2)cc1,-0.95,i,0.7%
COc1cc(C2NC(=O)N(C)C3=C2C(=O)CCC3)cc(OC)c1OC (stereo unspecified),-1.1,i,1.0%
Nc1nnc(SCC(=O)N2CCN(c3ccccc3)CC2)n1-c1ccccc1,-0.25,i,-7.0%
O=C(Nc1ccccc1F)C1CCN(C(=O)Cc2ccccc2)CC1,x,i,1.6%
Cc1nn2c(c1-c1ccc(Cl)cc1)N=C(c1ccco1)CC2c1ccccc1 (stereo unspecified),x,i,-2.2%
CN1CCN(c2ccc(NC(=O)COc3ccc(Cl)cc3Cl)cc2)CC1,0.87,i,-0.1%

Next part
compound,WNV NS2B-NS3 inh,MT1-MMP promoter,Hsc70 ATP site
N#CCCn1cc(/C=N/O)c(-c2ccc(F)cc2)n1,x,i,-0.7%
CCOC(=O)N1CCN(C(=O)c2ccc(Cl)c(S(=O)(=O)N3CCOCC3)c2)CC1,-0.65,i,6.8%
CN(C)CCNc1oc(-c2cccc(Cl)c2)nc1C#N,x,i,-1.3%
Cc1ccc2[nH]c(=O)c(C(c3nnnn3C3CCCC3)N(Cc3cccnc3)Cc3ccco3)cc2c1 (stereo unspecified),-0.72,i,-5.3%
Cc1occc1-c1nnc(SCC(=O)Nc2ccccc2)n1Cc1ccccc1,-0.55,i,0.9%
O=C(NCCc1ccccc1)c1ccc(OCCOc2ccccc2)cc1,x,i,-1.2%
CCOc1ccccc1-n1c(SCC(N)=O)nnc1-c1ccccc1,-0.83,i,-0.3%
COc1cccc(CNC(=O)C2CCCN(S(=O)(=O)c3c(C)n[nH]c3C)C2)c1 (stereo unspecified),0.73,i,5.5%
CCCCn1cnc2c1c(=O)[nH]c(=O)n2CCCC,x,i,9.3%
CCc1nnc(NC=C2C(=O)OC(C)(C)OC2=O)s1,0.91,i,-7.8%
CC(=O)/C(C(=N)N1CCN(c2cccc(Cl)c2)CC1)=C(\C)O,-0.1,i,3.2%
Clc1ccc(CSc2nnc(-c3cccnc3)o2)cc1,x,i,4.6%
Cc1ccc(-c2nc3n(n2)Cc2ccccc2-3)cc1,x,1.5µM*,3.6%
O=C(c1cc2ccccc2oc1=O)N1CCN(CCc2ccccc2)CC1,-0.87,i,-0.1%
CC(C)(C)NC(=O)CSc1nnc(-c2ccco2)n1Cc1ccco1,1.3,i,0.3%
CC1(C)CC(NC(=O)c2coc(=O)c(Br)c2)CC(C)(C)N1,-0.25,i,0.2%
CCOC(=O)N1CCC(NC(=O)CCC(=O)N2CCOc3ccccc32)CC1,-0.77,i,-0.2%
Cc1ccc(C)c(N2CCN(C(=O)C3CCCN(S(=O)(=O)c4cnc[nH]4)C3)CC2)c1 (stereo unspecified),-0.43,i,-2.9%
COc1ccc(NC(=S)NC(NC(=O)c2cccc(C)c2)C(Cl)(Cl)Cl)c([N+](=O)[O-])c1 (stereo unspecified),x,i,3.1%
O=C1NCC(c2ccccc2)C1C(=O)N/N=C\c1ccc(-c2ccc(Cl)c(Cl)c2)o1 (stereo unspecified),x,i,-5.4%
Cc1ccccc1Cn1nnc(-c2cccc(C(=O)O)c2)n1,-1.5,18µM*,0.1%
CC(=O)n1cc(C2C(=O)CCCC2=O)c2ccccc21,-0.49,i,5.9%
COc1ccc(NC(=O)c2ccccc2NC(=O)NC2CCCCC2)cc1,x,i,3.6%
COc1cccc(-n2nc(-c3ccnn3-c3ccc(F)cc3)c(=O)n(C)c2=O)c1,x,i,7.8%
Cn1c(C(=O)NC2CCCCCC2)cc2c(=O)n(C)c3ccccc3c21,0.53,i,-5.8%

A different layout for three compounds above.
> N#CCCn1cc(/C=N/O)c(-c2ccc(F)cc2)n1
  WNV NS2B-NS3 inh: x	MT1-MMP promoter: i	Hsc70 ATP site: -0.7%

> CCOC(=O)N1CCN(C(=O)c2ccc(Cl)c(S(=O)(=O)N3CCOCC3)c2)CC1
  WNV NS2B-NS3 inh: -0.65	MT1-MMP promoter: i	Hsc70 ATP site: 6.8%

> CN(C)CCNc1oc(-c2cccc(Cl)c2)nc1C#N
  WNV NS2B-NS3 inh: x	MT1-MMP promoter: i	Hsc70 ATP site: -1.3%

The results go on.
compound,WNV NS2B-NS3 inh,MT1-MMP promoter,Hsc70 ATP site
Cc1ccc(-c2nc3cccnc3o2)cc1NC(=O)COc1ccc(Cl)cc1C,-0.0031,i,-0.9%
Cc1nn(C)cc1CNC(=O)c1cnn2c(C(F)F)cc(C3CC3)nc12,-1.8,i,-1.0%
COc1nc(NC(C)=O)nc(C)c1Br,x,i,8.0%
CCCCc1n[nH]c2c1/C(=N/O)CC(c1ccccc1)C2 (stereo unspecified),-1.4,i,-1.8%
CCCSCCCNC(=O)Cn1cc2c(n1)CCCCC2,1.2,i,1.0%
Cc1cnn(Cc2ccccc2)c1N,0.78,i,3.2%
CC(C)(C)NC(=O)C(c1ccncc1)N(C(=O)Cn1nnc(-c2cccs2)n1)C1CCCCC1 (stereo unspecified),x,i,0.5%
CC(=O)C1C(c2ccc(OC(F)F)cc2)NC(=O)NC1(O)C(F)(F)F (stereo unspecified),-0.56,i,6.0%
CCCCc1nc2n[nH]c(N)c2c2c1CCC2,0.31,i,0.9%
O=C(c1cc(-c2ccc(F)cc2)on1)N1CCCC1,-0.77,i,-3.6%
CCc1ccc(CN2CC(C(=O)O)CC2=O)cc1 (stereo unspecified),x,i,7.2%
CCN1C(=O)C2(C(C(=O)c3ccc(C)o3)=C(O)C(=O)N2CCCN2CCOCC2)c2ccccc21 (stereo unspecified),-0.66,i,-10%
CCCC(=O)NC(c1ccco1)c1cc(Cl)c2cccnc2c1O (stereo unspecified),0.77,i,2.0%
COc1cc(OC)cc(C(=O)N2CCN(c3ncccn3)CC2)c1,-0.25,i,-3.8%
Cc1ccc(-c2noc(CN(C(=O)CCCN3C(=O)c4ccccc4C3=O)C(C)C)n2)cc1,-0.11,i,-7.5%
CCOC(=O)CN(C(=O)CNC(=O)c1cccs1)C(C(=O)NC1CCCCC1)c1cccs1 (stereo unspecified),x,i,6.6%
O=C(Cn1nnc(-c2ccccc2-n2cnnn2)n1)c1ccccc1,-0.5,i,3.2%
O=C(Nc1ccc(F)cc1)NC1CCN(Cc2nnnn2Cc2ccco2)CC1,-0.1,i,2.2%
O=C(CSCc1cccc(F)c1)N1CCN(c2ccccc2)CC1,-0.7,i,4.6%
Cc1nn(C2CCCCC2)c(N)c1-c1ccccc1,-1,i,1.3%
COc1ccccc1NS(=O)(=O)c1cccs1,x,i,0.0%
CCOC(=O)C(=O)/C(C#N)=C/Nc1ccc(F)cc1,x,i,1.6%
CC(C)(C)C(=O)Nc1sc2c(c1C#N)CCCCC2,x,i,-6.3%
Cc1c(C(=O)NC2CC2)oc2ccc(S(=O)(=O)N3CCCCCC3)cc12,1.5,i,-1.7%
Cc1ccc(C)c(N2CCN(C(=O)CN(C)S(=O)(=O)c3ccc4c(c3)CCC(=O)N4)CC2)c1,-1.2,i,2.3%
N#CCCn1ncc2ccccc21,2.1,i,-1.0%
COC(=O)C(O)(CC(=O)Nc1ccc(Cl)cc1Cl)C(F)(F)F (stereo unspecified),x,i,0.7%
O=C1c2cccnc2C(=O)N1Cc1ccccc1,-0.26,i,3.2%
COc1cc2nc(C3CC3)n(NC(=O)c3ccc(Cl)cc3)c(=O)c2cc1OC,-0.75,i,-2.0%
C/C(NCCN1CCOCC1)=C(\C#N)C(N)=O,-1.4,i,4.2%
CSc1ccccc1NC(=O)CN(C1CCCCC1)S(C)(=O)=O,x,i,-0.9%
COc1ccc(N2C(C(C)=O)=NN(c3ccccc3)C2c2cccs2)cc1 (stereo unspecified),x,i,-3.7%
COc1ccc(O)c(-c2[nH]ncc2C(=O)c2ccccc2C)c1,-1.2,i,-5.6%
CN1CCN(C(=O)NC2CCCN2S(=O)(=O)c2ccc(Cl)cc2)CC1 (stereo unspecified),-0.31,i,-6.6%
O=c1c2ccccc2nc2sc3ccccc3n12,1.3,i,-7.3%
C=CCSc1nnc(-c2c[nH]c3ccccc23)n1CC,-1.8,i,5.4%
CC(CN(C)Cc1ccccc1)OC(=O)c1cccs1 (stereo unspecified),-0.46,i,-1.2%
Cc1ccccc1C(=O)/C=C1\NC(=O)CS1,1.4,i,0.5%

Compound activity: PubChem BioAssay, several laboratories
